# High-throughput results as filed in PubChem.
# Mtb hypoxia inh – PubChem AID 1159583. fluorescence inhibition, % (no concentration beside the values). actives 0.1% (n = 300,000). M. tuberculosis hypoxia-regulated fluorescent reporter, fluorescence;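 active means 35 to 45% if threefold the growth effect, above 45% if 1.5-fold the growth effect; inactive means the rest, general growth blockers included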;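 further: wells of about 50 µL received 100 nL stock; 0% = vehicle wells and 100% = reference inhibitor wells; whole bacteria with a GFP reporter of the hypoxia response; strong numbers were not always called active; many hits fall short of the cut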
# Autofluor counter – flagged as autofluorescent in microsphere protease counterscreen; AID 624483; fluorescence intensity (no concentration beside the values); actives 3.1% (n = 360,000); compound autofluorescence counterscreen, microsphere flow cytometry; stronger effect = higher value;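 active means at least 3 SD above the mean of all compounds, about 16000 in these data; inconclusive means too few beads counted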;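 further: 100 nL of 1 mM stock went into each well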
# PrP 5UTR inh – inhibition of PrP 5' UTR reporter expression. cell-based PrP 5' UTR mRNA reporter, plate reader. inhibition, % (no concentration beside the values). actives 0.35% (n = 340,000);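 active means every replicate at 50% or more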;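 further: 0 = median of the neutral control wells; tested in H4 reporter cells; numbers are from one replicate; inactives centre near -14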
# Sa ugtP lethal – growth inhibition of ugtP-null S. aureus, primary screen, RN4220 ugtP deletion, OD600 | growth inhibition, % (no concentration beside the values) | actives 0.54% (n = 330,000) | 16 h; some inactives read as strong as hits;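 active means z-score under -3 and OD600 up to 0.15 on both plates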;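 further: plate controls were untreated wells for no effect and antibiotic for full effect; wells of about 80 µL received 100 nL stock; the first replicate is given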
# RN4220 kill – growth inhibition of S. aureus RN4220, primary screen, OD600. 16 h. actives 0.33% (n = 330,000). inhibition, % (no concentration beside the values);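 active means z-score of -3 or lower and OD600 up to 0.18 on both plates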;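 further: plate controls were untreated cells for no effect and reference antibiotic for full effect; stock transfer was 100 nL into about 80 µL; one replicate is shown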
# BJeLR viability – MLPCN primary cell-based screen for lethality selective to Ras in HRASV12 cells. BJeLR (HRASV12) viability, CellTiter-Glo ATP luminescence, 48 h; reference of the scale not given here. inhibition, % (concentration not given with the values). actives 0.17% (n = 300,000);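 active means replicate mean above 50%; inconclusive means above 50% but judged a plate artefact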;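 further: 50 nL library stock added to about 25 µL; numbers are from one replicate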
# Mtb hypoxia inh growth – recorded beside Mtb hypoxia inh, whose call it bears; growth inhibition, %; measured here: M. tuberculosis growth (absorbance);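 0% = vehicle and 100% = reference antibiotic; read after six days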
# Starred values were filed as active, the others as inactive; ? = inconclusive; . = no result given.
SMILES,Mtb hypoxia inh,Mtb hypoxia inh growth,Autofluor counter,PrP 5UTR inh,Sa ugtP lethal,RN4220 kill,BJeLR viability
Cc1ccc(C=Nn2c(C)nc3ccccc3c2=O)s1,14.7,4.4,.,.,2.6,0.7,.
CCCn1c(C2CCCN2c2nc(-c3ccc(C)cc3)cs2)nc2cc(Cl)c(N3CCCCC3)cc21 (stereo not drawn),20.2,9.1,3840,-22.1,-0.9,-3.0,4.3
O=C(Nc1ccc2c(c1)OCCO2)C1CCN(S(=O)(=O)c2cccs2)CC1,-1.2,2.3,23275*,-23.4,6.7,-0.7,-6.6
CC(NC(=O)c1ccccc1Cl)C(=O)OCc1cn2cc(Cl)ccc2n1 (stereo not drawn),-3.5,4.8,.,-11.7,-5.2,7.3,.
Cc1ccc(C(=O)CSc2nnc(CNc3nc(-c4ccccc4)cs3)n2C)cc1,.,.,4765,-13.2,-24.0,-6.7,-5.7
CCC/C(O)=C1\C(=O)CCCC1=NCCc1c(C)[nH]c2ccc(C)cc12,-10.1,-0.3,3785,-5.1,3.0,4.6,11.5
CCOC(=O)C1CCN(c2ncnc3c(C)csc23)CC1,0.4,-2.2,6652,-46.7,5.8,0.8,-0.6
CC(C)c1c(C(=O)N/N=C/c2cccc3ccccc23)nnn1-c1nonc1N,.,.,4460,-25.0,.,.,-3.4
COc1ccc(CCNC(=O)C(=O)NCc2ccc(Cl)cc2)cc1OC,6.3,16.5,4394,-21.2,-2.3,3.4,6.6
Cc1ccc(C(=O)/C=C/c2ccc3c(c2)OCO3)o1,7.1,-3.0,7512,-37.3,3.5,3.4,-3.1
CCN(C(=O)COC(=O)c1ccc2c(c1)OCO2)c1ccc(F)cc1,12.5,6.6,3812,-17.6,5.1,1.8,.
CCc1c(C)nc(N)nc1N1N=C1SC,5.8,11.4,5437,-15.5,9.1,6.8,-1.1
CCn1ccnc1C(O)c1ccc(N(C)C)cc1 (stereo not drawn),1.0,2.5,5682,-21.7,-11.7,4.7,-6.8
CC(C)c1nc(SCC(=O)Nc2ccc3c(c2)OCO3)n[nH]1,11.6,10.6,2396,-8.0,9.4,6.7,10.1
CCOC(=O)c1c(C)n(OCc2ccccc2)c2ccc3c(no[n+]3[O-])c12,6.4,0.0,6762,-13.6,3.2,8.9,4.7
O=C(c1ccccc1)N1CCN(c2ccc([N+](=O)[O-])c(NCc3cccnc3)c2)CC1,8.4,3.9,2462,-5.1,11.8,-1.1,-6.7
Cc1ccc(C)c(C(=O)NC2CC(C)(C)NC(C)(C)C2)c1,-3.3,-4.8,7160,-24.1,2.2,0.3,-5.4
Cc1ccc(C(=O)C(C)OC(=O)CN2C(=O)NC3(CCCC3)C2=O)cc1 (stereo not drawn),-9.3,-4.9,.,-2.0,-6.2,-3.3,-3.6
O=C(CN1C(=O)NC(Cc2c[nH]c3ccccc23)C1=O)Nc1cccc(S(=O)(=O)N2CCOCC2)c1 (stereo not drawn),-10.1,4.0,4499,-15.1,-1.5,4.0,1.1
Cc1cc(C)c(NC(=O)c2ccc(S(=O)(=O)N(C)C)cc2)c(C)n1,1.5,4.2,13255,-17.8,-3.1,-1.3,4.2

# Reprinted from the part before: three entries, followed by the next part.
SMILES,Mtb hypoxia inh,Mtb hypoxia inh growth,Autofluor counter,PrP 5UTR inh,Sa ugtP lethal,RN4220 kill,BJeLR viability
Cc1ccc(C(=O)C(C)OC(=O)CN2C(=O)NC3(CCCC3)C2=O)cc1 (stereo not drawn),-9.3,-4.9,.,-2.0,-6.2,-3.3,-3.6
O=C(CN1C(=O)NC(Cc2c[nH]c3ccccc23)C1=O)Nc1cccc(S(=O)(=O)N2CCOCC2)c1 (stereo not drawn),-10.1,4.0,4499,-15.1,-1.5,4.0,1.1
Cc1cc(C)c(NC(=O)c2ccc(S(=O)(=O)N(C)C)cc2)c(C)n1,1.5,4.2,13255,-17.8,-3.1,-1.3,4.2
Cc1nn(-c2ccccc2)c(/N=C/c2ccc(O)cc2)c1-c1ccccc1,.,.,2549,-72.8,.,.,9.8
C=C1C(=O)[C@@]23[C@H](O)C[C@@H]4C(C)(C)CC[C@H](O)[C@@]4(C)[C@@H]2CC[C@@H]1[C@H]3O,.,.,3924,0.7,.,.,14.4
CCOc1ccc(-n2c(C)c(C(C)=O)c3cc(O)ccc32)cc1,10.8,7.6,3470,23.5,-1.0,1.3,8.4
O=C(NCc1ccncc1)c1cccc(S(=O)(=O)Nc2ccc(SC(F)F)cc2)c1,4.6,-1.0,?,-6.3,4.1,-0.7,-3.3
O=C(Cn1cnc(Cl)c1Cl)c1ccccc1,-3.1,2.2,1908,-8.6,-2.1,2.9,-4.9
Cc1ccc(-c2noc(CNC(=O)COc3ccccc3C)n2)cc1,5.0,3.4,4592,-11.1,6.4,-1.4,5.2
COc1cccc(CC(=O)N2CCCC(CO)(Cc3ccc(F)cc3F)C2)c1 (stereo not drawn),13.2,5.5,4123,-16.2,-4.4,7.9,-1.8
Cc1ccc(S(=O)(=O)N2CCOC2CNC(=O)C(=O)NCCc2ccccc2)cc1 (stereo not drawn),-2.1,19.1,4692,-15.0,-3.1,-1.1,3.9
CCN(CC)S(=O)(=O)c1ccc2c(c1)nc(CCC(=O)Nc1ccc3c(c1)OCO3)n2C,8.3,4.5,2545,-8.6,-1.0,0.7,1.5
Cc1ccccc1-c1nnc(SCC(=O)NCC2CCCO2)o1 (stereo not drawn),25.6,10.3,?,-4.6,1.6,0.1,.
CNS(=O)(=O)c1cccc(C(=O)Nc2cccnc2)c1,.,.,2948,-8.5,2.1,0.5,-4.1
CCOc1ccc(C(=O)Nc2ccc3c(c2)C(=O)NC3=O)cc1,5.6,1.3,4964,39.3,14.3,5.2,-0.8
O=C1CCN(Cc2ccccc2)S(=O)(=O)c2ccc(C(F)(F)F)cc21,14.5,3.1,3446,-18.3,2.1,7.1,.
CCCN1Cc2cccc(C(=O)Nc3ccc(CN4CCCC4)cc3)c2C1=O,-1.0,0.9,3224,4.8,-3.4,2.9,4.6
O=C(CCCc1ccccc1)Nc1ccc(Br)cc1F,2.7,-2.5,3547,-18.5,10.4,0.4,7.5
CNC(=O)NC(=O)CSc1nc(-c2cccs2)c(C#N)c(=O)[nH]1,12.9,2.2,4983,-51.1,2.4,0.3,1.7
Cc1ccc(C2c3sc(=O)[nH]c3SC3C(=O)NC(=O)C32)cc1 (stereo not drawn),10.5,0.0,3280,-15.4,-3.4,-10.7,1.3
NC(=NOC(=O)COc1ccc([N+](=O)[O-])cc1)c1cccnc1,6.7,5.0,.,.,-0.8,0.4,.
CCC(CO)(C(=O)OC1C[N+]2(C)CCC1CC2)c1ccccc1 (stereo not drawn),-1.9,13.3,4535,-32.1,1.9,-1.5,-0.6
COc1ccc(/C=N\NC(=O)CNC(=O)C(c2ccccc2)c2ccccc2)cc1[N+](=O)[O-],.,.,2541,-4.3,.,.,10.0

# Next part (three carried over from the part before).
SMILES,Mtb hypoxia inh,Mtb hypoxia inh growth,Autofluor counter,PrP 5UTR inh,Sa ugtP lethal,RN4220 kill,BJeLR viability
NC(=NOC(=O)COc1ccc([N+](=O)[O-])cc1)c1cccnc1,6.7,5.0,.,.,-0.8,0.4,.
CCC(CO)(C(=O)OC1C[N+]2(C)CCC1CC2)c1ccccc1 (stereo not drawn),-1.9,13.3,4535,-32.1,1.9,-1.5,-0.6
COc1ccc(/C=N\NC(=O)CNC(=O)C(c2ccccc2)c2ccccc2)cc1[N+](=O)[O-],.,.,2541,-4.3,.,.,10.0
N#Cc1cc(N)c(Nc2ccccc2)cc1C#N,3.6,0.6,2414,0.0,-16.7,3.6,-6.8
CN(c1ccccc1)S(=O)(=O)c1ccc(C(=O)Nc2ncccc2O)cc1,4.2,-3.0,5122,-26.1,-2.6,3.8,-5.9
CCOC(=O)C1=NOC(CNC(=O)c2c(-c3ccccc3Cl)noc2C)C1 (stereo not drawn),.,.,2112,3.2,-0.7,1.5,11.3
Cc1ccc(-c2cc(C(=O)N3CCCCCC3)no2)cc1,10.5,18.6,5990,-75.6,10.0,1.1,7.1
COc1ccccc1Nc1nnc(SCc2cc(=O)n3cc(C)ccc3n2)s1,-9.1,-0.3,2980,-17.4,-0.9,-0.1,-3.3
Cc1ccc(OCCCCN2CCCCC2)cc1,2.6,-6.4,3476,-22.4,8.8,3.5,4.1
COc1cccc(OC)c1/C(O)=C(\C#N)c1nc2ccccc2[nH]1,.,.,7299,1.9,.,.,-0.6
CC(=O)C1=C(O)C(=O)N(CCC(=O)O)C1c1ccccc1[N+](=O)[O-] (stereo not drawn),-4.8,-5.2,1987,-23.1,3.6,1.9,1.5
O=[N+]([O-])c1cc(-c2n[nH]c(-c3ccccc3)n2)cc([N+](=O)[O-])c1,-17.4,0.3,7157,-23.9,-7.0,3.2,-4.2
COC(=O)C(=Cc1ccc(OCc2ccc([N+](=O)[O-])cc2)c(OC)c1)C(=O)OC,9.7,8.5,3224,-97.6,5.0,2.4,-0.1
O=C(N=Nc1c(O)[nH]c2ccc([N+](=O)[O-])cc12)c1ccccc1Cl,-5.5,-7.4,3928,-23.1,2.2,-0.4,6.6
COC(=O)c1ccc(OCC(O)CN2C(=O)NC(C)(C)C2=O)cc1 (stereo not drawn),3.0,6.1,2817,-22.1,-3.9,-10.0,-0.8
Cc1nc2ccc(N3C(=O)CCC3=O)cc2[nH]1,2.2,0.9,2579,-9.1,-5.3,6.0,2.2
COc1cc(CC(=O)OCC(=O)NC2CCCCC2)cc(OC)c1OC,12.2,2.9,4315,-23.1,6.8,9.9,-0.4
CCOC(=O)NC(=O)CSc1nc2ccc(OCC)cc2[nH]1,.,.,3681,0.5,4.7,0.5,-4.3
COc1ccccc1-c1sc2ccccc2c1-c1ccc(O)cc1,2.1,2.4,2970,-6.7,93.3*,-21.9,.
CCn1c(COc2ccccc2C)nnc1SCC(=O)NCc1ccccc1,-3.8,2.8,10496,-18.1,-0.1,1.2,-0.3
Cc1cc(C)n(S(=O)(=O)/C=C/c2ccccc2)n1,-11.1,-7.4,?,-20.6,-3.8,-2.6,7.5
CN(CCO)S(=O)(=O)c1ccc2c(c1)C(=NN)c1cc(S(=O)(=O)N(C)CCO)ccc1-2,1.0,-3.9,3620,.,-3.9,-0.9,5.9
O=C(Nc1ccc(F)cc1)C1CCN(S(=O)(=O)c2cccs2)CC1,11.8,6.4,4653,-22.0,5.2,1.3,1.7

# Entries of single compounds, quoted from the list.
# Cc1ccc(-c2cc(C(=O)N3CCCCCC3)no2)cc1 is entered as Mtb hypoxia inh: 10.5; Mtb hypoxia inh growth: 18.6; Autofluor counter: 5990; PrP 5UTR inh: -75.6; Sa ugtP lethal: 10.0; RN4220 kill: 1.1; BJeLR viability: 7.1
# CCOC(=O)NC(=O)CSc1nc2ccc(OCC)cc2[nH]1 is entered as Mtb hypoxia inh: .; Mtb hypoxia inh growth: .; Autofluor counter: 3681; PrP 5UTR inh: 0.5; Sa ugtP lethal: 4.7; RN4220 kill: 0.5; BJeLR viability: -4.3

# The list continues:
SMILES,Mtb hypoxia inh,Mtb hypoxia inh growth,Autofluor counter,PrP 5UTR inh,Sa ugtP lethal,RN4220 kill,BJeLR viability
COC(=O)c1sc(N2C(=O)C(O)=C(C(=O)c3ccc(C)o3)C2c2cc(OC)ccc2OC)nc1C (stereo not drawn),.,.,5419,-6.1,.,.,-3.2
CCC(C)Sc1nc2c([nH]c3ccccc32)c(=O)n1C (stereo not drawn),5.6,1.9,5997,-20.9,6.7,4.4,4.7
CCOC(=O)NN=C1CCc2ccccc21,13.0,6.2,.,.,-3.7,1.6,.
Cc1cc(C)c2c(SC(C)C)nc(N)nc2n1,8.6,4.6,8553,-9.0,2.3,-2.9,6.3
Cc1c(C(=O)OCC(=O)Nc2c(C)n(C)n(-c3ccccc3)c2=O)oc2ccccc12,2.9,-3.6,2134,-8.7,3.6,5.4,-2.2
COc1cc(C=NNC(=O)C(C)Nc2n[nH]c(=O)[nH]c2=O)cc(OC)c1O (stereo not drawn),4.3,-0.3,.,.,3.2,1.9,.
CCc1ccc(NC(=S)N(CCN2CCOCC2)Cc2ccccc2F)cc1,5.0,0.2,4398,-18.2,4.6,1.9,20.1
Cc1noc(C)c1CSCC(=O)N1CCN(c2ccc(F)cc2)CC1,5.1,-3.2,16984*,-20.9,6.0,3.9,16.3
